# CDC25B-CDK2 inh – human CDC25B-CDK2/CyclinA binding inhibition; P30305+P24941; HTRF CDC25B-CDK2/CyclinA binding, anti-His/anti-Flag; active compounds read high; z-score (test concentration not listed); actives 0.72% (n = 94,000);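 note: score is relative to mean and SD of negative controls; strong numbers were not always called active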
# HIV TAR-Tat – HIV-1 TAR-Tat binding disruption; HIV-1 TAR RNA, Tat peptide displacement FRET; active compounds read high; z-score (test concentration not listed); actives 0.6% (n = 100,000); AID 1259389;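 note: score is relative to mean and SD of negative controls; some compounds called inactive have numbers as strong as hits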
# Active calls of the source: *; nt = not tested or not shown.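 Rule for the calls: active = z-score from 3 up in half or more of its runs; inactive = the rest.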
SMILES,CDC25B-CDK2 inh,HIV TAR-Tat
CCC(=O)Nc1ccccc1SCc1cc(=O)n2nc(C(C)C)sc2n1,nt,0.35
Cc1nnc2sc(SCC(=O)Nc3ccccc3)nn2c1=O,nt,2.2
COc1cc(C2CC(=O)Nc3c2cnn3-c2nc3ccccc3s2)ccc1OCc1ccccc1 (stereo unspecified),nt,2
CCCCCN[C@H]1CS(=O)(=O)C[C@@H]1S(=O)(=O)c1ccc(F)cc1,0.78,0.32
CCc1ccc(CNC(=O)NCc2noc3ccc(C)cc23)cc1,nt,0.5
C[C@@H]1C(=O)[C@H](C)[C@@H](c2cccs2)N(C(=O)NC2CCCCC2)[C@H]1c1cccs1,-1.4,-0.35
Cc1cc2c(cc3c(SCC(=O)Nc4ccc(Br)cc4F)nnc(C)n32)o1,nt,-0.61
CCCCSCc1ccc(C(=O)O)o1,0.04,-2
Cn1c(=O)n(C)c2cc(CNCc3ccccc3Cl)ccc21,-0.68,1.7
COc1ccc(C2=Nn3c(nnc3-c3ccccc3OC)SC2)cc1OC,nt,-0.21
COc1cccc(C2C(C(=O)OC(C)C)=C(C)N=C3SCCC(=O)N32)c1 (stereo unspecified),0.04,-0.36
CC1CCCC(Nc2c(-c3cccc(Cl)c3)nc3c(C#N)c[nH]n23)C1C (stereo unspecified),-0.51,0.02
CC1CCN(S(=O)(=O)c2cn(CC(=O)NCC3CCCO3)cn2)CC1 (stereo unspecified),nt,0.71
CCN(CC)c1c(S(=O)(=O)c2ccccc2)cnc2ccc(C)cc12,1.7,-0.15
O=C(C1CCC(=O)N1S(=O)(=O)c1ccccc1)N1CCc2ccccc2C1 (stereo unspecified),nt,2.1
C[C@@]12CCc3occc3[C@H]1CC[C@@]13C[C@@H](CC[C@H]12)[C@@](O)(CO)C3,nt,1.9
O=C(Cn1c(=O)oc2cc(S(=O)(=O)NC3CCCC3)ccc21)NC1CCCC1,-0.8,-0.53
Cc1cc2ccccc2n2c(SCC(=O)c3ccc4c(c3)OCCO4)nnc12,-1.1,0.36
CCNC(=O)c1ccc(CN2C(=O)C(C)=C(c3ccc(C)c(C)c3)S2(=O)=O)cc1,nt,0.88
COC(=O)C(NC(=O)CCc1nnc2ccc(N3CCOCC3)nn12)C(C)C (stereo unspecified),nt,-0.06
CC1CCc2c(sc3nnn(CC(=O)Nc4ccc(F)c(Cl)c4)c(=O)c23)C1 (stereo unspecified),-0.42,0.63
COc1cccc(OCCn2c(C)nc3cc(C)c(C)cc32)c1,-0.35,0.14
Cc1cc(C)nc(NS(=O)(=O)c2ccc(N)cc2)n1,nt,-0.35
COc1cc(C2CC(=O)Nc3cc4c(cc32)OCCO4)ccc1O (stereo unspecified),-0.55,2.4

# Part of the list above in a different format.
# Values run as follows: CDC25B-CDK2 inh	HIV TAR-Tat
CCCCSCc1ccc(C(=O)O)o1
  0.04	-2
Cn1c(=O)n(C)c2cc(CNCc3ccccc3Cl)ccc21
  -0.68	1.7
COc1ccc(C2=Nn3c(nnc3-c3ccccc3OC)SC2)cc1OC
  nt	-0.21
COc1cccc(C2C(C(=O)OC(C)C)=C(C)N=C3SCCC(=O)N32)c1 (stereo unspecified)
  0.04	-0.36
CC1CCCC(Nc2c(-c3cccc(Cl)c3)nc3c(C#N)c[nH]n23)C1C (stereo unspecified)
  -0.51	0.02
CC1CCN(S(=O)(=O)c2cn(CC(=O)NCC3CCCO3)cn2)CC1 (stereo unspecified)
  nt	0.71
CCN(CC)c1c(S(=O)(=O)c2ccccc2)cnc2ccc(C)cc12
  1.7	-0.15
O=C(C1CCC(=O)N1S(=O)(=O)c1ccccc1)N1CCc2ccccc2C1 (stereo unspecified)
  nt	2.1
C[C@@]12CCc3occc3[C@H]1CC[C@@]13C[C@@H](CC[C@H]12)[C@@](O)(CO)C3
  nt	1.9
O=C(Cn1c(=O)oc2cc(S(=O)(=O)NC3CCCC3)ccc21)NC1CCCC1
  -0.8	-0.53
Cc1cc2ccccc2n2c(SCC(=O)c3ccc4c(c3)OCCO4)nnc12
  -1.1	0.36
CCNC(=O)c1ccc(CN2C(=O)C(C)=C(c3ccc(C)c(C)c3)S2(=O)=O)cc1
  nt	0.88
COC(=O)C(NC(=O)CCc1nnc2ccc(N3CCOCC3)nn12)C(C)C (stereo unspecified)
  nt	-0.06
CC1CCc2c(sc3nnn(CC(=O)Nc4ccc(F)c(Cl)c4)c(=O)c23)C1 (stereo unspecified)
  -0.42	0.63

# Continuation:
SMILES,CDC25B-CDK2 inh,HIV TAR-Tat
COC(=O)C(C)n1cnc2c(nnn2-c2cccc(OC)c2)c1=O (stereo unspecified),1,0.21
CCc1nn(CC(=O)N2CCN(c3ccccc3)CC2)c(=O)c2cc3occc3n12,-1.7,1.3
CCc1nnc(SCC(=O)Nc2ccc(OC)cc2OC)c2cc3oc(C)cc3n12,nt,2.5
COc1cc2c(cc1OC)C(COc1ccc3c(C)cc(=O)oc3c1)N(C(=O)c1ccco1)CC2 (stereo unspecified),-0.45,nt
O=C(Nc1ccc(F)cc1)c1cc2c(s1)-c1ccsc1CC2,-1.7,0.12
O=C(NCCc1ccsc1)c1c2c(nc3ccccc13)C(=O)N(C1CCCCC1)C2,nt,-0.48
CC1CCCC(NS(=O)(=O)c2ccc3c(c2)oc(=O)n3C)C1C (stereo unspecified),0.23,nt
Cc1ccc(-n2ncc3c(N(C)Cc4ccccc4)ncnc32)cc1,nt,2
CCCCOc1ccc(S(=O)(=O)NCc2cn3ccccc3n2)cc1,-1.1,nt
COc1cc(OC)c(NS(=O)(=O)c2c(C)[nH]c(C)c2C(=O)N2CCCC2)cc1Cl,nt,0.91
CSc1sc(C(=O)NCC2CC2)cc1S(=O)(=O)C(C)C,-2.1,nt
c1ccc(CSc2nc3ccncc3[nH]2)cc1,0.34,0.43
Cc1nc(N2CCCCC2)c2oc3ccccc3c2n1,-1.2,-0.12
CC(C)n1cc(-c2nc(C(=O)NNC(=O)C(C)(C)C)cs2)c(=O)n(Cc2ccccc2)c1=O,-1.2,nt
CCOC(=O)c1cnn(-c2ccc([N+](=O)[O-])cc2)c1-n1cccc1,0.7,nt
CC1CCC(NC(=O)Cn2ccc3cc(S(=O)(=O)N4CCCC4)ccc32)CC1 (stereo unspecified),nt,1.5
Cc1ccc(C(=O)N2CCN(Cc3ccc4c(c3)OCO4)CC2)cc1NC(=O)C1=CSCCO1,nt,0.76
O=C(Nc1ccccc1-c1cc2ccccc2[nH]1)NC1CCCC1,nt,0.48
Cc1ccc(CNc2nc3nc4c(c(=O)n3[nH]2)CCCC4)cc1,-2,1
CC1CCCCN1CCNC(=O)C1CCN(c2ncnc3c2nc2n3CCCCC2)CC1 (stereo unspecified),nt,1.1
COc1ccc(Cc2nc3c4c(C)c(C)n(CC(C)C)c4ncn3n2)cc1OC,0.28,0.95
CC(=O)N1N=C(c2ccc(Cl)cc2)OC1(C)C,-0.67,nt
CCOc1ccc(-c2noc(CSc3nnc(-c4ccncc4)n3CC)n2)cc1,-1.6,0.84
Cc1nc2ccc(S(=O)(=O)NC(CC(C)C)C(=O)N3CCN(C4CCCCC4)CC3)cc2s1 (stereo unspecified),-0.17,0.25
Cc1cccc(C2=NS(=O)(=O)c3cc(S(=O)(=O)N4CCOCC4)ccc3N2)c1,nt,-0.09
CCOc1cc(-c2cc(C(=O)O)c3c(-c4ccc(C)cc4)[nH]nc3n2)ccc1O,-2.2,1.6
COCCCN1C(=O)c2ccc(-c3ccco3)n2CC1(C)C(=O)NC1CCCCC1 (stereo unspecified),nt,-1.9
O=C1c2ccccc2N(c2ccccc2)C(=O)C1(Cl)Cl,-0.38,nt
Cc1ccc(C)c(NC(=O)N2c3ccccc3NC3=C(C(=O)CCC3)C2c2ccco2)c1 (stereo unspecified),nt,0.39
Cc1ccc(CNc2ncnc3c2cnn3-c2cc(Cl)ccc2C)cc1,nt,0.61
CCOc1cc(C2CC(=O)Nc3nc(SCc4cccc(C)c4)[nH]c(=O)c32)ccc1O (stereo unspecified),0.09,1.6
O=C(NCc1ccccc1)Nc1c[nH]c(=O)[nH]c1=O,nt,1
Nc1nc2n(n1)C(c1cccs1)CC(c1ccc(Cl)cc1)N2 (stereo unspecified),0.2,nt
Cc1ccc2nc(-c3ccccc3)oc(=O)c2c1,0.84,0.15
Cn1ccnc1SCC(O)c1ccc(-c2ccccc2)cc1 (stereo unspecified),-0.54,0.28
CCOc1cc(-c2ccc(OC(=O)c3cccs3)c(OC)c2)cc(=O)c2c(C)oc(C)c12,-2.1,4
Fc1ccc(-c2noc3ncnc(NCC4CCCO4)c23)cc1 (stereo unspecified),nt,0.26
O=C(Cn1c(=O)c2cccn2c2ccccc21)Nc1ccc(Br)cc1F,nt,0.27
O=C(NCc1ccc2c(c1)OCO2)c1n[nH]c(=O)c2ccccc12,-1.1,-0.26
O=C(CSc1nc2ccccc2s1)N1CCOCC1,-0.57,-0.5
CCOc1ccc(-n2c(C)nc3c(cnn3-c3ccc(Cl)cc3)c2=O)cc1,-1.9,nt
C=CCOC(=O)C1=C(C)Nc2nc(SCCC)[nH]c(=O)c2C1c1cccs1 (stereo unspecified),-1.7,0.13
Cc1cc(C)n(-c2cc(NC3CCCc4ccccc43)ncn2)n1 (stereo unspecified),nt,0.98
CC1Cc2cc(S(=O)(=O)NC3CCCc4ccccc43)ccc2N1C(=O)C1CC1 (stereo unspecified),nt,1.4
CCCCN(Cc1ccco1)C(=O)c1noc2c1COc1ccc(C)cc1-2,nt,1.5
O=C1CC(c2ccc(F)cc2)Sc2nc(C34CC5CC(CC(C5)C3)C4)nn21 (stereo unspecified),-2.3,nt
Cc1c(C(=O)N2CCOCC2)oc2ccc3c(c12)C(=O)CC1(CCC(C)CC1)O3 (stereo unspecified),-0.16,1.9
Oc1ccc2ncccc2c1C(Nc1ccccn1)c1cccs1 (stereo unspecified),0.59,1.4
C=CCn1c(=O)oc2ccc(C(=O)O)cc21,nt,1.1
Fc1ccc(C2Nc3cccc4cccc(c34)N2)cc1,-1.3,13*
CCOc1ccc(C(=O)OCc2cc(=O)n3nc(CC(C)C)sc3n2)cc1,nt,0.49
CCc1nn2c(=O)cc(CSCC(=O)Nc3ccccc3Cl)nc2s1,nt,0.68
O=c1c2ccccc2n(Cc2cc(=O)n3ccccc3n2)c(=O)n1Cc1ccccc1,-0.57,nt
Cc1[nH]nc(-c2ccc(S(=O)(=O)N3CCOCC3)s2)c1C,nt,0.74
NC(=O)N/N=C1\CCOc2ccc3ccccc3c21,-1.4,nt
Cc1nnc(-c2cccc(S(=O)(=O)N3CCN(C(c4ccccc4)c4ccccc4)CC3)c2)o1,-3.7,1.2
Cc1ccc2[nH]c3c(c2c1)CCCC3N1CCOCC1 (stereo unspecified),-1.9,nt
O=C(O)c1cccc(Nc2ncnc3ccc(Br)cc23)c1,-0.88,-0.9
O=C(c1c(-c2ccc(Cl)cc2)nc2n1CCS2(=O)=O)N1CCCC1,-1.9,-0.16
CCOc1ccc2nc(NC(=O)c3nn(-c4ccc(OC)cc4)ccc3=O)sc2c1,2.8,0.16

# (continued)
SMILES,CDC25B-CDK2 inh,HIV TAR-Tat
O=C(c1ccc(C2SCC(=O)N2CCc2ccccc2)cc1)N1CCCC1 (stereo unspecified),0.11,nt
COC(=O)c1cc(S(=O)(=O)NCc2cccs2)cn1C,-1.4,0.84
O=C(NCCC1=CCCCC1)c1cnc2sc(N3CCCC3)nn2c1=O,nt,1.3
CCc1ccc(C(=O)CSc2n[nH]c(-c3ccncc3)n2)cc1,-2,-0.09
O=C(CCCn1c2ccccc2c2cn[nH]c(=O)c21)NCC1CCCO1 (stereo unspecified),0.23,-0.35
C=CCN1C(=O)C(Cc2ccc(O)cc2)NC1=S (stereo unspecified),-0.28,nt
CC(C)CCNC(=O)C(C)n1ncn2c(cc3occc32)c1=O (stereo unspecified),0.56,0.15
Cc1cc2ccccc2n1-c1ccc(C(=O)N2CCC(C(=O)O)CC2)s1,-4.1,-0.44
CC1CCN(c2ncnc3c2nc2n3CCCCC2)CC1,nt,2.3
CN(C)CCNC(=O)C1(O)c2ccccc2NC(=O)N1c1c(F)cccc1F (stereo unspecified),-0.7,nt
CCOC(=O)C1=C(C)NC2=C(C(=O)CCC2)C1c1ccc(O)c(OC)c1 (stereo unspecified),-5.3,1.3
COc1ccc(-c2cnc(C)o2)cc1S(=O)(=O)Nc1ccc(C)c(C)c1,nt,1.2
CC(NC(=O)C(=O)NCCN1CCOCC1)C(c1cccs1)N1CCN(C)CC1 (stereo unspecified),2.3,1.4
CCN1CCN(CCCNC(=O)C2CCCN(c3nn4c(=O)c5c(nc4s3)CCCC5)C2)CC1 (stereo unspecified),nt,1.9
CCOC(=O)CSc1ncn(-c2nc(C)cc(N3CCCC3)n2)n1,-0.22,0.47
COC(=O)c1nnn(-c2cc(C)cc(C)c2)c1C(=O)OC,-1.2,-0.06
CCCN1CCN(C(=O)CC(=O)Nc2ccc3nc4n(c(=O)c3c2)CCCCC4)CC1,0.01,nt
CN(CC(=O)NC1CCCCC1)S(=O)(=O)c1ccc2c(c1)CCCC(=O)N2,nt,-0.76
O=C(Nc1ccc(C(F)(F)F)cc1)c1ccno1,-0.52,nt
CC(C)(C)c1ccc(C(=O)Nc2ccc3oc(-c4cccnc4)nc3c2)cc1,-2.2,nt
O=C(CSc1nc(-c2ccco2)nc2cc(=O)[nH]n12)Nc1ccc(F)cc1,nt,-2.1
Cc1[nH]c2ccccc2c1Cc1nnc(SCc2ccccc2)o1,-0.56,-1.1
COC(=O)c1ccc(C2Nc3ccccc3-c3nnc(SC)nc3O2)cc1 (stereo unspecified),0.56,-1.6
CCC(C)NC(=O)c1oc2ccc(S(=O)(=O)N3CCC4(CC3)OCCO4)cc2c1C (stereo unspecified),-0.2,nt
N#Cc1c(NC(=O)CN2C(=O)c3ccccc3C2=O)oc(-c2ccccc2)c1-c1ccccc1,0.12,nt
O=C1Nc2ccc(Cl)cc2[C@@](C#CC2CC2)(C(F)(F)F)O1,nt,0
O=C(CSc1nc(=O)n(CCN2CCOCC2)c2c1CCC2)Nc1cccc(F)c1,nt,1.7
CCOc1ccccc1OCc1nn2c(Cc3ccccc3)nnc2s1,-1.1,1.5
COc1cc(NC(=O)CCS(=O)(=O)c2ccc3c(c2)CC(=O)N3C)cc(OC)c1,nt,0.14
